Screening results from PubChem BioAssay.
NOMO-1 viab: STK33 inhibitor candidate reducing NOMO-1 cell viability | NOMO-1 AML viability, CellTiter-Glo luminescence, 72 h | inhibition, % (concentration not given with the values) | 7.5% of 37,000 active | AID 2330;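 active = most replicates above 80%; inconclusive = exactly half above 80%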;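 also: wells of about 30 µL received 25 nL stock; 0% = median of vehicle wells and 100% = reference inhibitor level; the first replicate is given; inactives centre near 10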
* marks the source's active call; other numbers are inactive results; ? = inconclusive. An excerpt (hit frequency here may not be typical).

canonical_smiles	NOMO-1 viab
CNC[C@H]1Oc2ccc(NS(=O)(=O)c3cccs3)cc2CC(=O)N([C@@H](C)CO)C[C@H]1C	14.3
N#Cc1cc2c(nc1SCCS(=O)(=O)c1nc3ccccc3s1)CCCC2	111.8*
C[C@@H]1CN([C@@H](C)CO)C(=O)c2cc(NS(=O)(=O)c3ccc(Cl)cc3)ccc2O[C@H]1CN(C)CC1CC1	35.8
C[C@H]1CN([C@@H](C)CO)C(=O)Cc2cc(NC(=O)NC3CCCCC3)ccc2O[C@@H]1CN(C)Cc1ccc(C(F)(F)F)cc1	43.1
COc1ccc(OCCCSc2ncccn2)cc1	-6.4
C[C@H](CO)N1C[C@H](C)[C@H](CN(C)S(C)(=O)=O)Oc2c(NS(=O)(=O)c3ccc(F)cc3)cccc2C1=O	13.2
C[C@@H]1CN([C@@H](C)CO)C(=O)c2cccc(NC(=O)C3CC3)c2O[C@@H]1CN(C)S(=O)(=O)c1ccc(F)cc1	16.7
C[C@H]1CN([C@@H](C)CO)C(=O)Cc2cc(NC(=O)NC3CCCCC3)ccc2O[C@@H]1CN(C)CC1CC1	20.3
COc1ccc(C(C)C)cc1S(=O)(=O)NCc1ccccn1	22.3
Cc1onc(-c2ccccc2Cl)c1C(=O)NCc1nc(-c2ccccc2)no1	20.7
CC(C)NC(=O)N(C)C[C@@H]1Oc2c(NC(=O)C3CCCCC3)cccc2C(=O)N([C@H](C)CO)C[C@@H]1C	2.6
C[C@@H]1CN([C@@H](C)CO)C(=O)Cc2cc(NC(=O)CCCCCC(=O)Nc3ccccc3N)ccc2O[C@@H]1CN(C)S(=O)(=O)c1ccc(Cl)cc1	45.8
Cc1nn(CC(=O)Nc2cc(F)ccc2F)c(C)c1[N+](=O)[O-]	-3.1
C[C@H]1CN([C@@H](C)CO)C(=O)c2cc(NS(=O)(=O)c3cccs3)ccc2O[C@@H]1CN(C)S(=O)(=O)c1cccs1	-1.7
C[C@@H]1CN([C@H](C)CO)C(=O)c2cc(NC(=O)C3CC3)ccc2O[C@@H]1CN(C)C(=O)Nc1ccc2c(c1)OCO2	2.6
CNC[C@H]1Oc2c(NC(=O)NC3CCCCC3)cccc2C(=O)N([C@H](C)CO)C[C@@H]1C	-11.5
Cc1noc(C)c1S(=O)(=O)N(C)C[C@H]1Oc2ccc(NC(=O)Cc3ccccc3)cc2CC(=O)N([C@@H](C)CO)C[C@H]1C	-9.7
C[C@@H]1CN([C@@H](C)CO)C(=O)c2cc(NC(=O)CCN3CCOCC3)ccc2O[C@H]1CN(C)Cc1ccccc1	-2.4
Cc1sc2nc3c4ccccc4c(NCC4CCCO4)nn3c(=O)c2c1C (centres undefined)	86.9*
Cc1ccc(S(=O)(=O)Nc2ccc3c(c2)CC(=O)N([C@@H](C)CO)C[C@H](C)[C@H](CN(C)C(=O)Nc2ccc4c(c2)OCO4)O3)cc1	12.9
O=C(CSc1nnc(C2COc3ccccc3O2)n1-c1ccccc1)c1ccc([N+](=O)[O-])cc1 (centres undefined)	17.4
O=C(CN1C(=O)c2cccc3cccc1c23)Nc1ccccc1C(=O)N1CCCC1	-8.4
CSc1nsc(SCC(=O)c2ccc([N+](=O)[O-])cc2)n1	18.8
Cc1cccc(-n2c(SCC(=O)c3ccccc3)nnc2-c2ccncc2)c1C	30.2
COc1ccc(NC(=O)N(C)C[C@@H]2Oc3ccc(NC(=O)NC(C)C)cc3CC(=O)N([C@H](C)CO)C[C@H]2C)cc1	13.0
c1ccc(N2CCN(CCCOc3ccc4c(c3)OCO4)CC2)cc1	6.0
Cc1cc(=O)[nH]c(SCCOc2cccc(Cl)c2)n1	7.5
CC1(C)CC(=O)C2=C(C1)N(Cc1ccco1)C(=O)NC2(C(F)(F)F)C(F)(F)F	8.0
Cc1ccc(S(=O)(=O)Nc2ccc3c(c2)C(=O)N([C@@H](C)CO)C[C@H](C)[C@@H](CN(C)C)O3)cc1	2.4
COc1ccc(S(=O)(=O)Nc2ccc3c(c2)CC(=O)N([C@H](C)CO)C[C@@H](C)[C@H](CN(C)Cc2ccc(Cl)c(Cl)c2)O3)cc1	111.9*
Cn1c(SCC(=O)Nc2ccc(Cl)cc2Cl)nc2ccccc2c1=O	28.7
CC(C)NC(=O)N(C)C[C@H]1Oc2ccc(NC(=O)Cc3ccccc3)cc2CC(=O)N([C@@H](C)CO)C[C@@H]1C	21.9
C[C@H]1CN([C@@H](C)CO)C(=O)c2cc(NS(=O)(=O)c3ccccc3)ccc2O[C@@H]1CN(C)Cc1ccc(C(=O)O)cc1	-8.8
C[C@H](CO)N1C[C@H](C)[C@@H](CN(C)Cc2ccccc2)Oc2c(NC(=O)CCCCCC(=O)Nc3ccccc3N)cccc2C1=O	126.2*
C[C@H](CO)N1C[C@H](C)[C@@H](CN(C)Cc2ccccc2)Oc2ccc(NC(=O)C3CCCCC3)cc2C1=O	27.1
O=C(CN1C(=O)c2cccc3cccc1c23)NCc1ccco1	32.0
COc1ccc(CCNC(=O)c2ccc3c(=O)n(CC4CCCO4)c(=S)[nH]c3c2)cc1OC (centres undefined)	12.8
C[C@H]1CN([C@@H](C)CO)C(=O)c2cccc(NC(=O)C3CC3)c2O[C@H]1CN(C)S(=O)(=O)c1ccc(F)cc1	16.1
CS(=O)(=O)N(CC(=O)Nc1ccc(Br)cc1)c1cc(Cl)c(Cl)cc1Cl	45.3
COc1ccc(NC(=O)N(C)C[C@H]2Oc3ccc(NS(=O)(=O)c4ccc(F)cc4)cc3CC(=O)N([C@@H](C)CO)C[C@H]2C)cc1	4.2
C[C@H](CO)N1C[C@H](C)[C@H](CN(C)Cc2ccc(Cl)c(Cl)c2)Oc2ccc(NC(=O)Cc3ccccc3)cc2CC1=O	29.0
COc1ccc(S(=O)(=O)Nc2ccc3c(c2)CC(=O)N([C@H](C)CO)C[C@@H](C)[C@@H](CN(C)CC2CCCCC2)O3)cc1	35.9
COc1ccc(NC(=O)N(C)C[C@H]2Oc3ccc(NC(=O)Nc4ccc(F)cc4)cc3C(=O)N([C@H](C)CO)C[C@@H]2C)cc1	3.1
C[C@@H]1CN([C@@H](C)CO)C(=O)Cc2cc(NS(=O)(=O)c3ccccc3)ccc2O[C@@H]1CN(C)C(=O)NC1CCCCC1	1.7
C[C@H]1CN([C@@H](C)CO)C(=O)c2cc(NS(=O)(=O)c3ccccc3)ccc2O[C@H]1CN(C)CC1CCCCC1	24.1

An excerpt of these results, with each value named:
structure: C[C@H]1CN([C@@H](C)CO)C(=O)c2cccc(NC(=O)C3CC3)c2O[C@H]1CN(C)S(=O)(=O)c1ccc(F)cc1
  NOMO-1 viab: 16.1
structure: CS(=O)(=O)N(CC(=O)Nc1ccc(Br)cc1)c1cc(Cl)c(Cl)cc1Cl
  NOMO-1 viab: 45.3
structure: COc1ccc(NC(=O)N(C)C[C@H]2Oc3ccc(NS(=O)(=O)c4ccc(F)cc4)cc3CC(=O)N([C@@H](C)CO)C[C@H]2C)cc1
  NOMO-1 viab: 4.2

More results follow.
canonical_smiles	NOMO-1 viab
C[C@H]1CN([C@@H](C)CO)C(=O)c2cccc(NC(=O)C3CCOCC3)c2O[C@@H]1CN(C)Cc1ccc(C(F)(F)F)cc1	6.2
Cc1c(NC(=O)CSc2nnnn2-c2ccc(F)cc2)c(=O)n(-c2ccccc2)n1C	0.0
COc1ccc(NC(=O)Nc2cccc3c2O[C@H](CN(C)S(=O)(=O)c2ccc(Cl)cc2)[C@@H](C)CN([C@@H](C)CO)C3=O)cc1	17.7
CCOC(=O)c1c(NC(=O)COc2ccc(Cl)cc2C)sc2c1CCC2	3.5
C[C@@H]1CN([C@H](C)CO)C(=O)Cc2cc(NC(=O)CCN3CCOCC3)ccc2O[C@@H]1CN(C)C(=O)Nc1ccc(F)cc1	22.6
N#CC(OC1OC(COC2OCC(OC(=O)/C=C/c3ccc(OC4OC(CO)C(O)C(O)C4O)cc3)C(O)C2O)C(O)C(O)C1O)c1ccccc1 (centres undefined)	8.4
C[C@@H]1CN([C@H](C)CO)C(=O)Cc2cc(NC(=O)Nc3ccc(C(F)(F)F)cc3)ccc2O[C@H]1CN(C)Cc1ccncc1	-6.9
COc1ccc(S(=O)(=O)Nc2ccc3c(c2)C(=O)N([C@H](C)CO)C[C@H](C)[C@@H](CN(C)C(=O)Nc2cccc4ccccc24)OCCCC[C@@H](C)O3)cc1	39.1
FC(F)(F)c1cccc(-n2c(Cn3nnc(N4CCOCC4)n3)n[nH]c2=S)c1	-13.1
Cc1cc(C)c(NC(=O)CSc2nnc(-c3ccncc3)n2C)c(C)c1	-3.6
C[C@@H]1CN([C@H](C)CO)C(=O)Cc2cc(NS(=O)(=O)c3ccccc3)ccc2O[C@@H]1CN(C)C(=O)Nc1ccc2c(c1)OCO2	9.1
CC(C)NC(=O)Nc1ccc2c(c1)CC(=O)N([C@H](C)CO)C[C@H](C)[C@H](CN(C)Cc1ccc3c(c1)OCO3)O2	14.7
CCn1c(=NC(=O)c2ccc(S(=O)(=O)N(C)C)cc2)sc2ccccc21	87.3*
Cc1ccc(S(=O)(=O)N(C)CC(=O)Nc2cccc(C#N)c2)cc1	-8.6
Cc1cc(C)c(C)c(OCC(=O)NCc2cccnc2)c1	30.9
COc1ccc(NC(=O)Nc2ccc3c(c2)C(=O)N([C@H](C)CO)C[C@@H](C)[C@@H](CN(C)Cc2ccncc2)O3)cc1	6.5
CCOC(=O)CNC(=O)c1cc2nc(-c3ccc(Cl)s3)cc(C(F)(F)F)n2n1	13.2
C=CC1C(OC2OC(CO)C(O)C(O)C2O)OC=C(C(=O)OC)C1CC1CC(=O)CC(CC(=O)CCc2ccc(O)cc2)O1 (centres undefined)	-4.4
CNC[C@@H]1Oc2c(NC(=O)C3CCCCC3)cccc2C(=O)N([C@H](C)CO)C[C@@H]1C	6.6
O=C(Nc1ccccc1)c1ccc(S(=O)(=O)NCc2ccncc2)cc1	50.4
COc1ccc(NC(=O)Nc2ccc3c(c2)C(=O)N([C@H](C)CO)C[C@@H](C)[C@@H](CN(C)C(=O)Nc2ccc(F)cc2)O3)cc1	-11.8
C[C@@H]1CN([C@@H](C)CO)C(=O)c2cccc(NS(C)(=O)=O)c2O[C@H]1CN(C)S(=O)(=O)c1cccs1	9.4
CC(C)CC(C(=O)Nc1cccc([N+](=O)[O-])c1)N1C(=O)c2ccccc2C1=O (centres undefined)	26.9
CCN1C(=O)c2cccc3c(S(=O)(=O)N4CCCC4C(=O)O)ccc1c23 (centres undefined)	-8.3
O=C(CSc1nnc(-c2ccc(Br)cc2)o1)Nc1ccc(Cl)cc1Cl	20.6
COc1ccc(NC(=O)CN(c2ccc(Br)c(C)c2)S(C)(=O)=O)cc1Cl	4.5
CCNS(=O)(=O)c1cc(-c2nnc(Nc3ccc(NC(C)=O)cc3)c3ccccc23)ccc1C	9.7
Cc1cccc(C)c1NC(=O)CN(c1ccc(Cl)c(C(F)(F)F)c1)S(C)(=O)=O	-7.2
CC(NC(=O)CSc1nnc2c3ccccc3n(C)c2n1)c1ccccc1 (centres undefined)	-0.2
COc1ccc(S(=O)(=O)N(C)C[C@H]2OCCCC[C@@H](C)Oc3ccc(NC(=O)Nc4ccccc4)cc3C(=O)N([C@H](C)CO)C[C@@H]2C)cc1	9.1
O=C(CSc1nnc(-c2ccco2)n1-c1ccccc1)Nc1ccc(F)cc1	3.3
Cc1c(S(=O)(=O)c2ccc(Cl)cc2)csc1C(=O)N(c1ccccc1)S(C)=O (centres undefined)	65.6
CC(C)NC(=O)N(C)C[C@@H]1Oc2c(NC(=O)c3ccncc3)cccc2C(=O)N([C@@H](C)CO)C[C@@H]1C	32.3
O=C(CSc1nnc(-c2cccs2)n1-c1ccccc1)c1ccc(Br)cc1	13.6
Cc1ccc(NC(=O)CCn2cnc3ccccc3c2=O)cc1C	4.2
COc1ccc(CCn2cnc3sc4c(c3c2=N)CCCC4)cc1OC	2.8
C[C@@H]1CN([C@H](C)CO)C(=O)c2cc(NC(=O)CCN3CCOCC3)ccc2O[C@@H]1CN(C)Cc1ccccc1	2.7
OC(CN1CCN(C/C=C/c2ccccc2)CC1)Cn1c2ccccc2c2ccccc21 (centres undefined)	?
COc1ccc(S(=O)(=O)Nc2ccc3c(c2)CC(=O)N([C@H](C)CO)C[C@H](C)[C@H](CN(C)Cc2ccc(Cl)c(Cl)c2)O3)cc1	98.2*
Cc1ccc(S(=O)(=O)N(C)CC(=O)Nc2c(F)cccc2F)cc1	-3.9
C[C@@H]1CCCCO[C@H](CN(C)C(=O)CCC(F)(F)F)[C@@H](C)CN([C@H](C)CO)C(=O)c2cc(NC(=O)Nc3ccc4c(c3)OCO4)ccc2O1	10.1
COc1ccc2cc1/C=C\NC(=O)C(Cc1ccccc1)NC(=O)C1C(CCN1C(=O)C(NC(=O)C(C)N(C)C)C(C)C)O2 (centres undefined)	20.6
Cc1cccc(-n2c(C)nnc2SCC(=O)Nc2ccc(Br)cc2Cl)c1	-12.4
Cc1cccc(-n2nc([N+](=O)[O-])c(=NCc3cccnc3)n2O)c1	53.9
COc1cc(CCO)ccc1O[C@@H]1O[C@H](CO)[C@@H](O)[C@H](O)[C@H]1O	-0.9
CC(C)NC(=O)Nc1cccc2c1O[C@H](CN(C)Cc1ccc3c(c1)OCO3)[C@@H](C)CN([C@H](C)CO)C2=O	12.2
COc1ccc(NC(=O)N(C)C[C@@H]2Oc3ccc(NC(=O)Cc4cn(C)c5ccccc45)cc3CC(=O)N([C@H](C)CO)C[C@H]2C)cc1	1.5
C[C@@H]1CN([C@H](C)CO)C(=O)Cc2cc(N(C)C)ccc2O[C@H]1CN(C)S(C)(=O)=O	16.7

Part of the list above, set out differently:
COc1cc(CCO)ccc1O[C@@H]1O[C@H](CO)[C@@H](O)[C@H](O)[C@H]1O
  NOMO-1 viab: -0.9
CC(C)NC(=O)Nc1cccc2c1O[C@H](CN(C)Cc1ccc3c(c1)OCO3)[C@@H](C)CN([C@H](C)CO)C2=O
  NOMO-1 viab: 12.2
